Screens (PubChem)
PD-1 reversal – activators reversing PD-1 mediated T-cell inhibition. activation, % (no concentration beside the values). primary human CD4 T cells, PD-L1 beads, CellTiter-Glo 96 h. AID 2316. 29,000 tested, under 10 active;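 active = replicate mean of 50% or more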;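 also: 0% = median vehicle wells and 100% = positive control; 100 nL library stock added to about 50 µL; numbers are from one replicate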
YB-1 expr inh – YB-1 expression inhibition; delta delta Cp (YB-1 minus CDIP) (no concentration beside the values); AID 434959; hit rate 0.37% among 30,000; U2OS, qRT-PCR YB-1 vs CDIP delta delta Cp, 16 h; stronger effect = higher value; zero = DMSO, each unit about twofold;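 active = delta delta Cp rounded down to an integer at or above 3, about 3 SD of DMSO wells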;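 also: higher means less YB-1 transcript or more CDIP transcript relative to DMSO; stock transfer was 100 nL into about 100 µL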
Shh pathway inh – Sonic Hedgehog pathway inhibition | Shh-LIGHT2 Gli-luciferase reporter, 30 h | inhibition, % (concentration not given with the values) | hit rate 2.1% among 22,000;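 active = replicate mean of 65% or more; inconclusive = mean lower but half the replicates past it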;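 also: pathway switched on by Shh-conditioned medium diluted 1 in 25 in low serum; 100 nL library stock added to about 40 µL; 0% = median of neutral wells and 100% = positive control level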
MITF inh – inhibitors of MITF; hit rate 0.28% among 37,000; TRPM1 promoter luciferase, luminescence, 24 h; AID 2240; inhibition, % (test concentration not listed);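 active = most replicates at 85% or more, or half of them and the mean; inconclusive = half reach 85% but not the mean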;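 also: human melanocyte line stably carrying TRPM1 promoter luciferase reporter; 0% = vehicle wells and 100% = a positive control; the first replicate is given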
Numbers without * were called inactive; ? = inconclusive; nt = not tested or not shown. The list is partial (hit frequency here may not be typical).

Order of results – PD-1 reversal	YB-1 expr inh	Shh pathway inh	MITF inh
> C[C@@H]1CN([C@H](C)CO)C(=O)c2cc(NC(=O)CCC(F)(F)F)ccc2O[C@@H]1CN(C)C(=O)Nc1cccc2ccccc12
 : -0.6	0.0627	10.4	-0.8
> C[C@H]1CN([C@@H](C)CO)C(=O)c2cc(NC(=O)C3CCCCC3)ccc2O[C@H]1CN(C)C(=O)Nc1ccc2c(c1)OCO2
 : -0.8	0.0218	4.3	-5.3
> CN(CC(=O)O)S(=O)(=O)c1ccc(F)c2ccccc12
 : 3.6	nt	nt	-8.8
> O=C(c1ccncc1)N1C2C=CC(C2)C1(C(F)(F)F)C(F)(F)F (centres undefined)
 : -0.5	-0.283	-31.1	-19.2
> Cc1noc(C)c1NC(=O)Nc1ccc2c(c1)C(=O)N([C@@H](C)CO)C[C@@H](C)[C@H](CN(C)Cc1ccncc1)O2
 : 1.8	-0.041	-13.0	-0.3
> CNC[C@H]1Oc2c(NC(=O)Nc3ccc4c(c3)OCO4)cccc2C(=O)N([C@H](C)CO)C[C@@H]1C
 : nt	-0.0708	-16.9	-6.2
> Cc1ccc(S(=O)(=O)Nc2ccc3c(c2)C(=O)N([C@@H](C)CO)C[C@@H](C)[C@@H](CN(C)C(=O)Nc2ccccc2)O3)cc1
 : -1.4	0.571	nt	3.3
> Cc1ccc(C2=NN(C(=O)CCC(=O)O)C(c3ccc(F)cc3)C2)cc1 (centres undefined)
 : -2.9	nt	nt	-0.1
> C[C@@H]1CC[C@]2(C(=O)O)CC[C@]3(C(=O)O)C(=CCC4[C@@]5(C)CC[C@H](O[C@@H]6O[C@H](C)[C@H](O)[C@H](O)[C@H]6O)C(C)(C)C5CC[C@]43C)C2[C@H]1C (some centres undefined)
 : nt	-0.204	?	nt
> C[C@H](CO)N1C[C@H](C)[C@@H](CN(C)S(=O)(=O)c2ccc(Cl)cc2)Oc2c(NC(=O)Nc3ccc(F)cc3)cccc2C1=O
 : nt	0.537	34.0	-12.0
> Cc1noc(C)c1S(=O)(=O)Nc1ccc2c(c1)CC(=O)N([C@@H](C)CO)C[C@H](C)[C@@H](CN(C)CC1CCCCC1)O2
 : 0.2	0.364	17.8	-8.7
> CC(C)NC(=O)Nc1ccc2c(c1)CC(=O)N([C@H](C)CO)C[C@H](C)[C@H](CN(C)Cc1ccc(-c3ccccc3)cc1)O2
 : -2.1	-0.0185	-18.3	-0.2
> C[C@H]1CN([C@@H](C)CO)C(=O)c2cccc(NC(=O)Nc3ccc(F)cc3)c2O[C@@H]1CN(C)S(=O)(=O)c1ccc(Cl)cc1
 : nt	-0.112	18.3	-3.1
> C[C@H]1CN([C@@H](C)CO)C(=O)c2cc(NS(=O)(=O)c3ccc(F)cc3)ccc2O[C@@H]1CN(C)S(=O)(=O)c1cn(C)cn1
 : 1.1	0.0348	-57.8	1.3
> C[C@H]1CN([C@@H](C)CO)C(=O)c2cc(NS(=O)(=O)c3ccc(Cl)cc3)ccc2O[C@H]1CN(C)CC1CCCCC1
 : 0.6	-0.335	0.7	0.7
> COc1cccc(NC(=O)c2cc([N+](=O)[O-])ccc2NCc2cccnc2)c1
 : -8.1	nt	nt	32.7
> C[C@@H]1CN([C@@H](C)CO)C(=O)Cc2cc(NS(=O)(=O)c3cn(C)cn3)ccc2O[C@@H]1CN(C)C(=O)Nc1ccc2c(c1)OCO2
 : 3.1	0.535	-18.1	-6.3
> C[C@@H]1CN([C@@H](C)CO)C(=O)c2cc(NS(C)(=O)=O)ccc2O[C@@H]1CN(C)C(=O)Nc1ccc(F)cc1
 : 2.2	0.701	nt	7.7
> C[C@H](CO)N1C[C@H](C)[C@H](CN(C)C(=O)Nc2ccccc2)Oc2ccc(NC(=O)CCN3CCOCC3)cc2CC1=O
 : 0.7	-0.228	-31.3	-3.6
> C[C@@H]1CN([C@@H](C)CO)C(=O)c2cc(NC(=O)C3CC3)ccc2O[C@@H]1CN(C)C(=O)Nc1ccccc1
 : 0.0	-0.178	3.5	-4.9
> Cc1ccc(S(=O)(=O)N(C)C[C@@H]2Oc3ccc(NS(=O)(=O)c4ccc(Cl)cc4)cc3C(=O)N([C@@H](C)CO)C[C@@H]2C)cc1
 : -1.8	-0.293	nt	11.4
> C[C@@H]1CN([C@H](C)CO)C(=O)c2cc(NS(=O)(=O)c3cccs3)ccc2O[C@H]1CN(C)Cc1ccncc1
 : -0.1	0.153	-19.7	-1.8
> C[C@@H]1CN([C@H](C)CO)C(=O)c2cccc(N(C)C)c2O[C@H]1CN(C)Cc1ccc(C(=O)O)cc1
 : 1.9	0.0991	-13.1	-3.5
> CCCNC(=O)NS(=O)(=O)c1ccc(Cl)cc1
 : nt	-0.15	-74.1	-1.6
> C[C@@H]1CN([C@H](C)CO)C(=O)Cc2cc(NC(=O)Nc3ccc(F)cc3)ccc2O[C@H]1CN(C)CC1CCCCC1
 : nt	-0.331	-57.9	12.1
> COc1ccc(-n2c(SCC(=O)N(c3ccccc3)c3ccccc3)nc3ccccc3c2=O)cc1
 : 0.5	nt	nt	15.1
> C[C@@H]1CN([C@H](C)CO)C(=O)Cc2cc(NS(=O)(=O)c3ccccc3)ccc2O[C@@H]1CN(C)S(=O)(=O)c1ccc(F)cc1
 : -1.2	0.25	15.8	-1.9
> Cc1ccc(NC(=O)C(C)n2cc([N+](=O)[O-])cn2)cc1C (centres undefined)
 : -1.5	nt	nt	-20.2
> C[C@@H]1CN([C@H](C)CO)C(=O)c2cccc(NS(=O)(=O)c3ccccc3)c2O[C@H]1CN(C)CC1CC1
 : nt	0.106	6.7	-19.9
> Cc1ccc2c(c1)NC(C(F)(F)F)(C(F)(F)F)NC2=O
 : 0.4	-0.162	5.7	1.0

Remaining list, next part
Order of results – PD-1 reversal	YB-1 expr inh	Shh pathway inh	MITF inh
> COc1ccc(NC(=O)N(C)C[C@H]2Oc3ccc(NC(=O)Nc4c(C)noc4C)cc3C(=O)N([C@@H](C)CO)C[C@H]2C)cc1
 : -0.2	0.217	5.7	0.8
> C[C@H]1CN([C@@H](C)CO)C(=O)c2cccc(NC(=O)C3CCOCC3)c2O[C@H]1CN(C)C
 : nt	0.0534	-35.8	1.8
> Cc1cc(C(=O)Nc2cccc3c2O[C@H](CN(C)S(=O)(=O)c2ccc(Cl)cc2)[C@@H](C)CN([C@@H](C)CO)C3=O)n(C)n1
 : 3.5	0.292	20.5	-8.5
> CCOc1ccc(NC(=O)CC2C(=O)NCCN2C(=O)c2ccccc2)cc1 (centres undefined)
 : 1.9	nt	nt	-2.1
> Nc1nnc(SCC(=O)NC2CCCCC2)n1-c1ccccc1
 : 1.9	nt	nt	-16.4
> Cc1noc(C)c1NC(=O)N(C)C[C@@H]1Oc2ccc(NS(=O)(=O)c3cn(C)cn3)cc2C(=O)N([C@H](C)CO)C[C@@H]1C
 : -0.8	-0.0869	nt	-3.9
> Cc1noc(C)c1NC(=O)N(C)C[C@@H]1Oc2c(NC(=O)Nc3ccc4c(c3)OCO4)cccc2C(=O)N([C@H](C)CO)C[C@H]1C
 : nt	0.133	-6.9	3.2
> C[C@@H]1CN([C@@H](C)CO)C(=O)Cc2cc(NC(=O)Nc3cccc4ccccc34)ccc2O[C@@H]1CN(C)C(=O)Nc1ccccc1
 : -2.7	0.0863	-6.4	-2.1
> C[C@@H]1CCCCO[C@H](CN(C)Cc2ccc(C(F)(F)F)cc2)[C@@H](C)CN([C@H](C)CO)C(=O)c2cc(NC(=O)Nc3ccc(C(F)(F)F)cc3)ccc2O1
 : -1.5	0.0987	-40.9	-0.1
> CC[C@@H]1/C=C(\C)C[C@H](C)C[C@H](OC)[C@H]2O[C@@](O)(C(=O)C(=O)N3CCCC[C@H]3C(=O)O[C@H](/C(C)=C/[C@@H]3CC[C@@H](O)[C@H](OC)C3)[C@H](C)[C@@H](O)CC1=O)[C@H](C)C[C@@H]2OC
 : -36.3	-0.0769	24.6	-7.9
> C[C@@H]1CN([C@H](C)CO)C(=O)c2cccc(NC(=O)Nc3ccccc3)c2O[C@H]1CN(C)C(=O)NC1CCCCC1
 : -0.3	0.3	-0.3	3.2
> COc1ccccc1NC(=O)COc1ccc(Cl)cc1CO
 : -1.1	nt	nt	-35.7
> CC(C(=O)Nc1ccccc1-c1ccccc1)N(c1ccccc1)S(C)(=O)=O (centres undefined)
 : -0.5	nt	nt	-8.8
> CS(=O)(=O)N(CC(=O)Nc1ccccc1C(=O)N1CCOCC1)c1ccc(Cl)cc1
 : -1.0	nt	nt	10.9
> C[C@@H]1CCCCO[C@@H](CN(C)C(=O)Nc2ccc3c(c2)OCO3)[C@@H](C)CN([C@H](C)CO)C(=O)c2cc(NC(=O)Nc3ccc4c(c3)OCO4)ccc2O1
 : -0.8	0.232	20.3	-3.8
> C/C=C(\C)C(=O)O[C@H]1C=C(CO)C(=O)[C@H](OC(C)=O)[C@H]1C(C)C
 : -35.1	-0.577	57.1	48.0
> CC(C)NC(=O)Nc1ccc2c(c1)C(=O)N([C@@H](C)CO)C[C@H](C)[C@@H](CN(C)C(=O)Nc1ccccc1)O2
 : nt	-0.0237	nt	-5.9
> O=C(O)CCc1c(C(=O)O)[nH]c2cc(Cl)cc(Cl)c12
 : -1.3	nt	17.4	-8.6
> C[C@@H]1CN([C@H](C)CO)C(=O)c2cccc(NC(=O)Nc3ccc(C(F)(F)F)cc3)c2O[C@@H]1CN(C)CC1CC1
 : 0.9	-0.355	11.4	3.0
> COc1ccc(NC(=O)N(C)C[C@@H]2Oc3ccc(NC(=O)Cc4cn(C)c5ccccc45)cc3C(=O)N([C@H](C)CO)C[C@@H]2C)cc1
 : -1.8	0.00536	-13.3	19.7
> CC(C)(C)c1cc(C(=O)NCc2ccco2)ccn1
 : -0.3	nt	nt	-1.5
> C[C@@H]1CN([C@@H](C)CO)C(=O)c2cc(NS(=O)(=O)c3ccccc3)ccc2O[C@@H]1CN(C)CC1CCCCC1
 : -0.2	0.304	2.3	5.0
> Cc1cc(Cl)ccc1OCC(=O)Nc1cccc(NC(=O)c2ccccc2Cl)c1
 : -0.7	nt	nt	-37.7
> Cc1noc(C)c1S(=O)(=O)Nc1ccc2c(c1)CC(=O)N([C@@H](C)CO)C[C@@H](C)[C@@H](CN(C)CC1CC1)O2
 : nt	0.077	2.9	3.6
> C[C@H]1CN([C@@H](C)CO)C(=O)Cc2cc(NC(=O)Cn3cnnn3)ccc2O[C@H]1CN(C)Cc1ccncc1
 : 2.3	-0.503	-27.5	-2.0
> Cc1oc2nc(SCC(=O)N3CCCCC3)nc(N)c2c1C
 : 0.4	nt	nt	-22.6
> C[C@H]1CN([C@@H](C)CO)C(=O)c2cc(N(C)C)ccc2O[C@@H]1CN(C)C(=O)Nc1cccc2ccccc12
 : -2.7	-0.23	nt	12.5
> C=C1CCCC(C)(C(=O)OC)C1CC/C(C)=C/CCC1=CC(=O)OC1 (centres undefined)
 : nt	0.0128	10.6	nt
> O=C(CCCN1CC=C(n2c(=O)[nH]c3ccccc32)CC1)c1ccc(F)cc1
 : nt	0.0815	?	9.0
> C[C@@H]1CN([C@H](C)CO)C(=O)c2cccc(NC(=O)Nc3ccccc3)c2O[C@H]1CN(C)C
 : nt	0.243	-25.2	-2.5
> Cc1cc(C(=O)Nc2cccc3c2O[C@@H](CN(C)S(=O)(=O)c2ccc(Cl)cc2)[C@H](C)CN([C@H](C)CO)C3=O)n(C)n1
 : 1.4	0.0713	-13.5	-4.4
> Cc1ccc(Oc2ccc(NC(=O)CN3C(=O)C4C5C=CC(C6CC56)C4C3=O)cc2)cc1 (centres undefined)
 : 0.3	nt	nt	44.2
> C[C@@H]1CN([C@H](C)CO)C(=O)c2cccc(NC(=O)C3CC3)c2O[C@H]1CN(C)S(=O)(=O)c1ccc(F)cc1
 : 1.3	0.252	-33.9	-5.4

Part of the list above, as labelled records.
> Cc1noc(C)c1NC(=O)N(C)C[C@@H]1Oc2ccc(NS(=O)(=O)c3cn(C)cn3)cc2C(=O)N([C@H](C)CO)C[C@@H]1C
  PD-1 reversal = -0.8 | YB-1 expr inh = -0.0869 | Shh pathway inh = nt | MITF inh = -3.9
> Cc1noc(C)c1NC(=O)N(C)C[C@@H]1Oc2c(NC(=O)Nc3ccc4c(c3)OCO4)cccc2C(=O)N([C@H](C)CO)C[C@H]1C
  PD-1 reversal = nt | YB-1 expr inh = 0.133 | Shh pathway inh = -6.9 | MITF inh = 3.2
> C[C@@H]1CN([C@@H](C)CO)C(=O)Cc2cc(NC(=O)Nc3cccc4ccccc34)ccc2O[C@@H]1CN(C)C(=O)Nc1ccccc1
  PD-1 reversal = -2.7 | YB-1 expr inh = 0.0863 | Shh pathway inh = -6.4 | MITF inh = -2.1
